FGF22 binding: FGF22 (human) thermal shift binding; calls only at 9.99 µM; recombinant FGF22 thermal shift, SYPRO orange fluorescence; percent of sucrose octasulfate shift, DMSO zero; Q9HCT0; 340,000 compounds, 1.5% hits; AID 651658;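 active = melting point raised past a set limit in the mean and every replicate; three in four hits are not shown here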
Target sequence (Q9HCT0 whole entry, looked up): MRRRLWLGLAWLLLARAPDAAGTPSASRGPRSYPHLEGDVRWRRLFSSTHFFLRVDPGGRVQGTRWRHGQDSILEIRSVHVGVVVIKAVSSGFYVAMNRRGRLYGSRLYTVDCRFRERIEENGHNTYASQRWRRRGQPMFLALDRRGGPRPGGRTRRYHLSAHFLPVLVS
MLL AF4-AF9 inh: blocks AF4 peptide binding to human AF9; P42568; AlphaScreen, biotin-AF4 peptide binding to FLAG-AF9; inhibition, % at 10 µM; 350,000 compounds, 0.47% hits; AID 651704;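 active = every replicate reaching a set inhibition limit, whatever the replicate mean, cut at about 25% in these data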;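 note: 0% = plate neutral control median and 100% = total signal loss; the record names both 10 and 1 µM as test concentration; the first replicate is given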
Target sequence (P42568 whole entry, looked up): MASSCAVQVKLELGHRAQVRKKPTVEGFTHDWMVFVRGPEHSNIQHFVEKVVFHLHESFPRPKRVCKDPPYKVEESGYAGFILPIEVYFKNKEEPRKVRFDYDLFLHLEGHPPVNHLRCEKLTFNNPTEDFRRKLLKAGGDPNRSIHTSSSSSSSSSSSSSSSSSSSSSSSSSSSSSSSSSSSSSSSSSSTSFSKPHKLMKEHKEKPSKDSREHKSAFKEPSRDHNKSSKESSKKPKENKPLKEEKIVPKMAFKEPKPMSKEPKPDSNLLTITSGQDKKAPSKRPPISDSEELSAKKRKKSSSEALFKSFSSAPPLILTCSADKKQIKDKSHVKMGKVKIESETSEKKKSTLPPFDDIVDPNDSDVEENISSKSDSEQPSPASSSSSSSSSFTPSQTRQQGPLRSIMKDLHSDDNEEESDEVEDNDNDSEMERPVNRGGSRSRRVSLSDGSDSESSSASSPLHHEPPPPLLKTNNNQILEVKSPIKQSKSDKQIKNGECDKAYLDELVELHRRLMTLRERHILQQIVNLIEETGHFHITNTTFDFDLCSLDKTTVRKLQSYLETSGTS
Ecoli rRNA inh: selective bacterial rRNA inhibition in E. coli; 350,000 compounds, 1.6% hits; E. coli WT GFP vs humanized-ribosome RFP mutants, fluorescence, 24 h; hits give low values; DMSO median 0, no signal -100; GFP signal change (wild-type ribosome), % (concentration not given with the values);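 active = significant combined selectivity score with lowered wild-type GFP, culture density cut under 30%, mutant RFP and density less affected; inactive = any of these conditions unmet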; note: one replicate is shown; some compounds called inactive have numbers as strong as hits
Ecoli rRNA inh OD600: further read-out of Ecoli rRNA inh, marked with its call; OD600 change, %; measured here: OD600 growth;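 optical density of the mix in the first replicate; 0 = DMSO median and -100 = no signal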
Ecoli rRNA inh RFP: also measured in Ecoli rRNA inh; calls as there; RFP signal change, %; measured here: RFP humanized mutant strains;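 first replicate; 0 = DMSO median and -100 = no signal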
Numbers without * were called inactive; i = inactive; + = active, no number; & = joins results of further samples. These rows are one share of the data. The share of hits here may be higher or lower than overall.

FGF22 binding,MLL AF4-AF9 inh,Ecoli rRNA inh,Ecoli rRNA inh OD600,Ecoli rRNA inh RFP,Structure
i,-4.2,1,-9,-0.4,Cc1noc(C)c1S(=O)(=O)Nc1ccc2c(c1)C(=O)N([C@@H](C)CO)C[C@@H](C)[C@@H](CN(C)C(=O)Nc1cccc3ccccc13)OCCCC[C@H](C)O2
+,0.9,1,12,-2.7,CC(=O)N1[C@H](CO)[C@@H](c2ccccc2)C12CN(C(=O)Cc1ccccc1)C2
i,-0.3,15,18,6.1,CNS(=O)(=O)c1ccc2c(c1)[nH]c(=S)n2C
i,0.6,2,1,-0.3,O=C(CCN1CCCCC1)N[C@@H]1CC[C@@H](CCNS(=O)(=O)c2ccccc2)O[C@@H]1CO
i,0.2,0,-10,1.1,C[C@H](CO)N1C[C@H](C)[C@@H](CN(C)Cc2ccncc2)Oc2ccc(NC(=O)CCC(F)(F)F)cc2CC1=O
i,0.3,-1,-3,6.3,Cc1ccc(S(=O)(=O)Nc2ccc3c(c2)C(=O)N([C@H](C)CO)C[C@@H](C)[C@H](CN(C)C(=O)NC2CCCCC2)OCCCC[C@H](C)O3)cc1
i,0.2,3,3,-1.9,CCCNC(=O)N1CC2(C1)CN(C(=O)c1cccnc1)[C@H](CO)c1[nH]c3cc(OC)ccc3c12
i,5.3,-2,-7,0.8,COc1ccc(N2CCN(c3cc(C(=O)Nc4cc(OC)c(OC)c(OC)c4)ncn3)CC2)cc1OC
i,-0.3,2,3,-2.7,C[C@@H]1CN([C@@H](C)CO)C(=O)c2cccc(NS(C)(=O)=O)c2O[C@@H]1CN(C)Cc1ccc2c(c1)OCO2
i,7.8,-4,-5,4.6,CC(C)C#Cc1cnc2c(c1)C(=O)N([C@H](C)CO)C[C@H](C)[C@@H](CN(C)Cc1cccc(F)c1)O2
i,2.6,-13,-12,1.2,O=C1c2ccccc2C(c2nnnn2-c2ccc3c(c2)OCCO3)N1CCc1ccc(O)cc1 (centres undefined)
i,-2.2,-1,-9,0.8,COc1ccc2c3c(n(C)c2c1)[C@@H](CO)N(C(=O)CC1CC1)CC31CCN(C(=O)C2CCCC2)CC1
i,-1.0,-2,-2,-1.6,O=C(C[C@@H]1CC[C@@H](NC(=O)CC2CC2)[C@H](CO)O1)NCc1ccc(-c2ccccc2)cc1
i,-0.3,1,-1,-1.1,COCc1cn(CC[C@H]2CC[C@H](NC(=O)Nc3ccc(F)cc3)[C@@H](CO)O2)nn1
i,-0.1,0,1,-6.3,CCC(=O)Nc1ccc2c(c1)OC[C@H](C)N(Cc1nccs1)C[C@@H](C)[C@@H](OC)CN(C)C2=O
i,0.7,-1,6,2.5,O=C(CC1CC1)N1[C@H](CO)[C@H](c2ccccc2)C12CN(S(=O)(=O)c1ccccc1)C2
i,-1.9,-41*,-23*,-2.2*,Nc1[nH]c(C(=O)c2ccccc2)c(-c2ccccc2Br)c1C(=O)c1ccccc1
i,6.2,-1,-12,-0.6,C[C@H](CO)N1C[C@H](C)[C@H](CN(C)C(=O)Nc2ccc3c(c2)OCO3)Oc2ccc(NC(=O)Nc3cccc4ccccc34)cc2CC1=O
i,-2.0,-3,-2,-0.2,CCC(=O)NC[C@H]1N[C@H](CO)[C@@H]1c1ccc(-c2cccc(C#N)c2)cc1
i,-3.5,1,6,-1.6,C[C@H]1CN([C@@H](C)CO)C(=O)Cc2cc(NS(C)(=O)=O)ccc2O[C@@H]1CN(C)C(=O)Nc1ccccc1
i,1.5,0,-6,-0.7,Cc1noc(C)c1S(=O)(=O)Nc1ccc2c(c1)C(=O)N([C@H](C)CO)C[C@H](C)[C@@H](CN(C)Cc1ccc(C(=O)Nc3ccccc3N)cc1)O2
i,-1.0,0,15,1.8,COc1cccc(S(=O)(=O)N(C)C[C@H]2Oc3ncc(C#CCN(C)C)cc3C(=O)N([C@H](C)CO)C[C@H]2C)c1
i,-17,3,0,1.7,CCCN(C)C[C@H]1OCc2cn(nn2)CCCC(=O)N([C@@H](C)CO)C[C@H]1C
i,-1.5,-5,8,0.4,COc1ccc(-c2cnc3c(c2)C(=O)N([C@@H](C)CO)C[C@H](C)[C@@H](CN(C)C(=O)Cc2ccncc2)O3)cc1
i,3.3,-3,4,-0.8,C[C@H]1CN([C@@H](C)CO)C(=O)Cc2cc(NS(=O)(=O)c3ccc(Cl)cc3)ccc2O[C@H]1CN(C)C(=O)Nc1cccc2ccccc12
i,0.7,1,-2,2.5,CO[C@H](CN(C)C(=O)C1CCOCC1)[C@@H](C)CN(C(=O)Nc1ccc(F)cc1)[C@@H](C)CO
i,1.9,1,-3,1.2,COc1ccc(CN(C)C[C@H]2OCCCC[C@@H](C)Oc3ccc(NC(=O)Nc4ccc(OC)cc4)cc3C(=O)N([C@@H](C)CO)C[C@@H]2C)cc1
i,6.0,-1,2,-1.1,C[C@@H]1CN([C@H](C)CO)S(=O)(=O)c2ccc(-c3ccc(F)cc3)cc2O[C@@H]1CN(C)CC1CC1
i,2.0,2,-4,-2.9,O=C(C[C@@H]1CC[C@H](NS(=O)(=O)c2ccccc2)[C@H](CO)O1)NCc1ccncn1
i,-3.8,7,9,0.7,CCOC(=O)C1(C)CCN1C(=O)c1cccnc1Oc1ccccc1 (centres undefined)
i,-3.9,5,13,-1.2,COCC#Cc1cnc2c(c1)C(=O)N([C@@H](C)CO)C[C@H](C)[C@@H](CN(C)C(=O)C1CCOCC1)O2
i,1.2,8,0,-2.2,C[C@H]1CNC(=O)c2c(C(=O)N3CCN(C(=O)OC(C)(C)C)CC3)ncn21
i,-1.9,1,6,1.7,Cc1noc(C)c1NC(=O)Nc1ccc2c(c1)C(=O)N([C@H](C)CO)C[C@H](C)[C@H](CN(C)S(=O)(=O)c1c(C)noc1C)OCCCC[C@H](C)O2
i,-0.5,0,15,-0.7,C[C@H]1CN([C@@H](C)CO)C(=O)c2cc(/C=C/c3ccccc3)cnc2O[C@H]1CN(C)S(C)(=O)=O
i,2.0,-1,1,0.6,O=C(C[C@@H]1CC[C@H]2[C@@H](COC[C@H](O)CN2Cc2cccc(-c3ccncc3)c2)O1)N1CCCCC1
i,2.1,0,1,-2.5,CC=Cc1ccc2n(c1=O)C[C@H]1[C@H](CO)[C@@H](C(=O)NCC(F)(F)F)[C@@H]2N1C(=O)CC (mixture of isomers)
i,2.9,0,0,-0.2,Cc1noc(C)c1NC(=O)Nc1ccc2c(c1)C(=O)N([C@H](C)CO)C[C@@H](C)[C@H](CN(C)S(=O)(=O)c1cccs1)OCCCC[C@H](C)O2
i,-8.6,-5,-22,37,O=C(Nc1ccc(Cl)cc1)N[C@@H]1CC[C@@H](CCn2cc(C3(O)CCCC3)nn2)O[C@@H]1CO
i,8.1,3,-5,17,COc1ccc(CN(C)C[C@@H]2Oc3ccc(NC(=O)Cc4cn(C)c5ccccc45)cc3CC(=O)N([C@H](C)CO)C[C@@H]2C)cc1
i,-6.6,-5,-25,-3.8,COCc1cccc(-c2csc(C(C)(O)c3cccc(OC)c3)n2)c1 (centres undefined)
i,1.9,4,5,-1.2,CCOC(=O)c1cc(OC(=O)Cc2ccc(OC)c(S(=O)(=O)N3CCOCC3)c2)cc(C(=O)OCC)c1
i,-0.6,-44,-70,4.1,C=CCN1C=CC(=O)[C@@H](OC(=O)Nc2ccc(Br)cc2)[C@H]1c1ccccc1Br
i,0.8,-4,3,-3.0,C[C@@H]1CN([C@@H](C)CO)C(=O)Cc2cc(N(C)C)ccc2O[C@@H]1CN(C)C(=O)Nc1ccccc1
i,-4.1,1,3,-4.0,COc1ccc(NC(=O)N(C)C[C@H]2Oc3ccc(NS(C)(=O)=O)cc3CC(=O)N([C@H](C)CO)C[C@H]2C)cc1
i,-0.1,-1,-4,0.8,COc1ccc(NC(=O)N(C)C[C@@H]2OCCCC[C@@H](C)Oc3ccc(NS(=O)(=O)c4cn(C)cn4)cc3C(=O)N([C@@H](C)CO)C[C@H]2C)cc1

A section from the list above, for reference:
FGF22 binding,MLL AF4-AF9 inh,Ecoli rRNA inh,Ecoli rRNA inh OD600,Ecoli rRNA inh RFP,Structure
i,8.1,3,-5,17,COc1ccc(CN(C)C[C@@H]2Oc3ccc(NC(=O)Cc4cn(C)c5ccccc45)cc3CC(=O)N([C@H](C)CO)C[C@@H]2C)cc1
i,-6.6,-5,-25,-3.8,COCc1cccc(-c2csc(C(C)(O)c3cccc(OC)c3)n2)c1 (centres undefined)
i,1.9,4,5,-1.2,CCOC(=O)c1cc(OC(=O)Cc2ccc(OC)c(S(=O)(=O)N3CCOCC3)c2)cc(C(=O)OCC)c1
i,-0.6,-44,-70,4.1,C=CCN1C=CC(=O)[C@@H](OC(=O)Nc2ccc(Br)cc2)[C@H]1c1ccccc1Br
i,0.8,-4,3,-3.0,C[C@@H]1CN([C@@H](C)CO)C(=O)Cc2cc(N(C)C)ccc2O[C@@H]1CN(C)C(=O)Nc1ccccc1
i,-4.1,1,3,-4.0,COc1ccc(NC(=O)N(C)C[C@H]2Oc3ccc(NS(C)(=O)=O)cc3CC(=O)N([C@H](C)CO)C[C@H]2C)cc1
i,-0.1,-1,-4,0.8,COc1ccc(NC(=O)N(C)C[C@@H]2OCCCC[C@@H](C)Oc3ccc(NS(=O)(=O)c4cn(C)cn4)cc3C(=O)N([C@@H](C)CO)C[C@H]2C)cc1

More results follow.
FGF22 binding,MLL AF4-AF9 inh,Ecoli rRNA inh,Ecoli rRNA inh OD600,Ecoli rRNA inh RFP,Structure
i,-9.9,-1,5,0.4,COc1ccc(CN(C)C[C@@H]2OCCCC[C@H](C)Oc3ccc(NC(=O)NC(C)C)cc3C(=O)N([C@H](C)CO)C[C@@H]2C)cc1
i,-0.8,19,9,2.4,c1ccc(-c2ccc3cnccc3n2)cc1
i,2.3,-18,-5,0.5,COc1ccc([C@H]2C[C@H](O)[C@@H](n3cc(C4CC4)nn3)CN2Cc2cccs2)cc1
i,-0.6,6,10,-2.4,C[C@@H]1CN([C@H](C)CO)S(=O)(=O)c2ccc(-c3ccc(C#N)cc3)cc2O[C@H]1CN(C)C(=O)CN(C)C
i,5.1,-32,-68,10,O=C(C[C@@H]1CC[C@H]2[C@@H](COC[C@@H](O)CN2C(=O)c2ccc(F)cc2)O1)Nc1ccc(-c2ccccc2)cc1
i,-0.6,2,-3,-0.5,CO[C@@H]1CN(C)C(=O)c2cc(NC(=O)NC(C)C)ccc2OC[C@@H](C)N(Cc2ccccn2)C[C@@H]1C
i,-21,-2,-1,0.1,O=C(N[C@@H]1CC[C@@H](CCn2cc(-c3ccccc3F)nn2)O[C@H]1CO)c1ccc2c(c1)OCO2
i,-2.6,2,-5,-3.5,CN1CCN(C(=O)C[C@H]2CC[C@@H]3[C@@H](COc4ccc(NC(=O)c5cscn5)cc4C(=O)N3C)O2)CC1
i,-8.2,2,1,-1.9,CO[C@H]1CN(C)C(=O)c2cc(NC(C)=O)ccc2OC[C@H](C)N(C(=O)c2ccccn2)C[C@H]1C
i,1.3&0.9,2&-2,3&-1,-2.2&-0.6,C[C@@H]1CN([C@H](C)CO)C(=O)CCCn2nncc2CO[C@@H]1CN(C)S(=O)(=O)c1cccc(F)c1
i,-5.2,-3,-8,-2.3,CCNC(=O)C[C@H]1CC[C@H]2[C@@H](COc3ccc(NC(=O)Nc4ccc(C#N)cc4)cc3C(=O)N2C)O1
i,-0.2,-7,-5,1.5,COc1ccc(C(=O)Oc2ccc(C)cc2)cc1S(=O)(=O)N1CCOCC1
i,2.2,-3,-10,-3.5,C[C@@H]1CN([C@H](C)CO)C(=O)c2cc(NS(=O)(=O)c3ccc(Cl)cc3)ccc2O[C@@H]1CN(C)C(=O)Nc1ccc(F)cc1
i,7.3,-29,-40,18,C[C@H](CO)N1C[C@H](C)[C@H](CN(C)Cc2ccccc2)Oc2ccc(NC(=O)Nc3ccc(C(F)(F)F)cc3)cc2C1=O
i,-2.9,0,0,0.2,C[C@@H]1CN([C@H](C)CO)C(=O)Cc2cc(NC(=O)CCN3CCOCC3)ccc2O[C@H]1CN(C)C(=O)Nc1ccccc1

Molecules shown so far with a CF3 group, in the order listed:
FGF22 binding,MLL AF4-AF9 inh,Ecoli rRNA inh,Ecoli rRNA inh OD600,Ecoli rRNA inh RFP,Structure
i,0.2,0,-10,1.1,C[C@H](CO)N1C[C@H](C)[C@@H](CN(C)Cc2ccncc2)Oc2ccc(NC(=O)CCC(F)(F)F)cc2CC1=O
i,2.1,0,1,-2.5,CC=Cc1ccc2n(c1=O)C[C@H]1[C@H](CO)[C@@H](C(=O)NCC(F)(F)F)[C@@H]2N1C(=O)CC (mixture of isomers)
i,7.3,-29,-40,18,C[C@H](CO)N1C[C@H](C)[C@H](CN(C)Cc2ccccc2)Oc2ccc(NC(=O)Nc3ccc(C(F)(F)F)cc3)cc2C1=O

Other structures follow.
FGF22 binding,MLL AF4-AF9 inh,Ecoli rRNA inh,Ecoli rRNA inh OD600,Ecoli rRNA inh RFP,Structure
i,0.2,6,11,-0.6,COCC(=O)N1[C@H](C#N)[C@@H](c2ccccc2-c2ccccc2)[C@H]1CO
i,4.2,2,-4,5.4,Cc1noc(C)c1S(=O)(=O)N(C)C[C@@H]1OCCCC[C@H](C)Oc2ccc(NS(=O)(=O)c3cccs3)cc2C(=O)N([C@H](C)CO)C[C@H]1C
i,-3.0,-2,3,-3.1,C[C@@H]1CN([C@H](C)CO)C(=O)c2cccc(NC(=O)c3ccncc3)c2O[C@@H]1CN(C)S(=O)(=O)c1cn(C)cn1
i,1.4,5,2,0.7,CC(C)C[C@H]1CN(CCCC[C@H]2CNC(=O)C(=O)N2Cc2ccccc2)C(=O)C(=O)N1CC1CCCCC1
